Source: PubChem
A647 autofl: compound autofluorescence in A647 spectral region; Compound fluorescence, A647 channel (570/671 nm), Tris buffer; 59,000 tested, under 10 active; AID 592; max dye-equivalent concentration, M; active means above 1 µM dye equivalent; inconclusive means 0.1 to 1 µM; inactive means 0.1 µM or less;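 further: values scaled relative to a standard on each plate; highest value over a series up to 38 µM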
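Buffer was dispensed, compounds and Alexa 647 standards were pin-transferred, and plates sat 15 min at room temperature. Intensity at 570/671 nm was then converted to dye-equivalent concentration using the plate's A647 standard curve.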
Resorufin autofl: compounds fluorescent in resorufin spectral region; Compound fluorescence, resorufin region 547/598 nm, buffer; active compounds read high; max dye-equivalent concentration, M; 59,000 compounds, 0.04% hits; AID 588; active = above 10 nM dye equivalent; inconclusive = 1 to 10 nM; inactive = 1 nM or less; a few of its hits are not listed in these tables; further: highest value over a series up to 38 µM
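Tris 100 mM pH 8.0; compound added, 15 min RT; CCD imager read, ex 547 nm/em 598 nm; signal normalized to resorufin standard curve (six concentrations per plate) as dye-equivalent concentration.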
TSHR ag: agonists of human thyroid stimulating hormone receptor. P16473. HEK293-CNG-TSHR cells (CNG channel as cAMP sensor), membrane potential dye, cAMP. Potency, µM (titrated, usually from 57.1 µM), for the others: at the highest dose activation, most hits filed as activators. 73,000 compounds, 0.48% hits. AID 926; active = well fitted activation curve of enough size with the parental cells flat; inconclusive = any curve in the parental cells; inactive = parental cells flat and receptor cells flat or falling; further: potency means the concentration at half of the fitted maximal effect; % of control where 0% means no effect; weak receptor curves with flat parental cells got no call and are not listed
Target sequence (P16473 whole entry, looked up): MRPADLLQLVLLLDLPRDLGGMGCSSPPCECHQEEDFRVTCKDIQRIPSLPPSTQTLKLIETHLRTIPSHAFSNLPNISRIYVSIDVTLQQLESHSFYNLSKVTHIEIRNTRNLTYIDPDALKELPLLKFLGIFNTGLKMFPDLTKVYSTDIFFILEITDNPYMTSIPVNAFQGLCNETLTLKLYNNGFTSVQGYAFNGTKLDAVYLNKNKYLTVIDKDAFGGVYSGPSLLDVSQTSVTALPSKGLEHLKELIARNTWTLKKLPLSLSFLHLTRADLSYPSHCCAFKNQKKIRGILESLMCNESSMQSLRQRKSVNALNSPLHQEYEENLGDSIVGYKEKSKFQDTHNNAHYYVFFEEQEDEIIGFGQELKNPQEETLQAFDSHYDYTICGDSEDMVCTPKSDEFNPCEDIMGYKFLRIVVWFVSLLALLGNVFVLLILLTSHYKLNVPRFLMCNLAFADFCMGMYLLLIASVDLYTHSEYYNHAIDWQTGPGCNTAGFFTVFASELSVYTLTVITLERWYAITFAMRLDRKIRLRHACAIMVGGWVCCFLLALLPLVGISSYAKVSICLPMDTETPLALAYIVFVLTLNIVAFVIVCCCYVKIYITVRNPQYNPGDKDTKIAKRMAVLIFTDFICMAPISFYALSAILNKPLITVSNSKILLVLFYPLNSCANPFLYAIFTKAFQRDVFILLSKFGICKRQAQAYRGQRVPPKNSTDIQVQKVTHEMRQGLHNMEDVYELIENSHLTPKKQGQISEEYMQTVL
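cAMP rise detected as CNG-channel membrane depolarization by fluorescent dye (emission 590 nm), 30 min after compound, following 60 min dye loading containing 100 uM RO 20-1724 at room temperature. Cells: TSHR/CNG HEK 293, with parental CNG HEK 293 as control.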
AID923: qHTS Assay for Allosteric/Competitive Inhibitors of Caspase-1: Spectroscopic Profiling in AFC Spectral Region | compound fluorescence, AFC spectral region (405/520 nm); almost no hit is shown here | Potency, µM (doses to about 57.5 µM), for the others: top-dose fluorescence increase, most hits filed as activators | 75,000 compounds, 1.1% hits; active means well fitted activation curve with a large enough effect; inconclusive means small, poorly fitted or top-dose-only effect;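 further: potency means the concentration at half of the fitted maximal effect; 0% is about no effect; scaled to a free AFC standard on each plate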
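Baseline compound fluorescence (AFC region, 405 nm ex/520 nm em) taken from the intercept of kinetic reads with 50 nM caspase-1 and 5 uM Ac-WEHD-AFC; normalized to an on-plate AFC standard curve; compounds titrated up to 57 uM.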
A488 fluor: compound autofluorescence in A488 spectral region; compound autofluorescence, A488 spectral region, dye equivalency; active compounds read high; max dye equivalency, M; 59,000 compounds, 0.1% hits; AID 591; active = above 10 nM dye equivalent; inconclusive = 1 to 10 nM; inactive = 1 nM or less; about half of its hits are not listed in these tables;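 further: highest value over a series up to 38 µM; compound alone in buffer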
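Compound autofluorescence was read in 100 mM Tris pH 8.0 after 15 min at room temperature, ex 480 nm/em 540 nm. Intensities were converted to A488 dye-equivalent concentration using an on-plate six-point A488 standard curve.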
* hit, by the source's call; i = inactive; ? = inconclusive; . = not tested or not shown; [ ] = dose if it differs, or a comment.

SMILES	A647 autofl	Resorufin autofl	TSHR ag	AID923	A488 fluor
Clc1ccc(-c2nnc(-c3ccco3)o2)cc1	4.4e-09	i	2.6%[11.4 µM]	-0.2%	i
O=C1[C@@H]2C=CC=CC2=NC(=S)N1CCN1CCC(=C(c2ccc(F)cc2)c2ccc(F)cc2)CC1	4.86e-08	i	?	-2.3%	i
O=C(CCCSc1nnc(-c2cccs2)n1CC1CCCO1)c1ccccc1 (centres undefined)	5.9e-09	i	?	1.6%	i
O=C(Oc1ccccc1)c1cc2ccccc2o1	8.36e-08	i	3.1%	-1.6%	i
O=C(Nc1ccc(Cl)cc1)C1CCCN(S(=O)(=O)c2cnc[nH]2)C1 (centres undefined)	.	.	-5.1%	-0.5%	.
NC[C@@H]1O[C@H](O[C@@H]2[C@H](O[C@@H]3O[C@H](CO)[C@@H](O)[C@@H]3O)[C@@H](O)[C@@H](N)C[C@H]2N)[C@@H](N)[C@H](O)[C@@H]1O	2.03e-08	i	0.0%[25.6 µM]	3.7%[25.7 µM]	i
COc1ccc(NC(=O)CN2C(=O)C(C)Oc3ccccc32)c(OC)c1 (centres undefined)	1e-09	i	-0.7%	0.2%	i
CCOC(=O)N1CCN(CCC(=O)Nc2ccc(C)c(Br)c2)CC1	1e-09	i	.	2.7%	i
CCn1c(CSc2ncccn2)nnc1SCC(=O)N1c2ccccc2CC1C (centres undefined)	4.9e-09	i	7.9%	0.4%	i
COCCCN1C(=O)C(=O)/C(=C(/O)c2ccc(C)cc2)C1c1ccccc1 (centres undefined)	1e-09	i	14.2%	0.7%	i
N#Cc1cccc(-c2cc(NCc3cccnc3)ncn2)c1	1.5e-09	i	2.2%	-1.0%	i
COC(=O)C1CCN(C(=O)Cc2ccc(Br)cc2)CC1	9.3e-09	i	-12.9%	0.5%	i
O=C(CCC(=O)c1ccc(F)cc1)OC1CCOC1=O (centres undefined)	2.2e-09	i	0.1%	1.1%	i
Cc1cc(C)n(C(=O)c2ccc(NC(=O)C3COc4ccccc4O3)cc2)n1 (centres undefined)	3.22e-08	i	.	-0.4%	i
O=C(Cn1nnc2c(cnn2-c2ccccc2)c1=O)NCc1cccs1	1e-09	i	20.6%	2.6%	i
CCCn1c(CCNC(=O)c2cccs2)nc2ccccc21	.	.	10.9%	0.6%	.
COc1ncnc2c1oc1nc(CC(C)C)c3c(c12)CCCC3	1.32e-08	i	22.3%	-0.4%	i
CCCc1[nH]nc2c1C(c1ccc(O)c(OC)c1)C(C#N)=C(N)O2 (centres undefined)	4.07e-08	i	-2.3%	0.2%	i
c1cncc(CNCc2cccnc2)c1	2.01e-08	i	8.3%[11.4 µM]	0.3%[11.5 µM]	i
CCOC(=O)c1ccc(COc2nc3ccccc3nc2-c2ccccc2NC(C)=O)o1	2.02e-08	i	13.2%	0.7%	i
COCCNC(=O)C(c1ccccc1C)N(CCOC)C(=O)Cn1nnc2ccccc21 (centres undefined)	2.76e-08	i	0.8%	-0.8%	i
CCN1C(=O)c2ccccc2S(=O)c2ccc(C(=O)NCCCN3CCCC3=O)cc21 (centres undefined)	.	.	-1.3%	0.5%	.
COc1ccc(OCC(=O)Nc2cc(OC)cc(OC)c2)cc1	.	.	1.8%	-1.0%	.
CC(C)P(=O)(Cc1cccc(C#N)c1)C(C)C	2.2e-08	i	2.8%	-0.9%	i
O=C(O)c1cc(N=Nc2ccc([N+](=O)[O-])cc2)ccc1O	1e-09	i	-13.2%[11.4 µM]	-1.3%[11.5 µM]	i

Next part, starting with the last 5 of the part before.
SMILES	A647 autofl	Resorufin autofl	TSHR ag	AID923	A488 fluor
COCCNC(=O)C(c1ccccc1C)N(CCOC)C(=O)Cn1nnc2ccccc21 (centres undefined)	2.76e-08	i	0.8%	-0.8%	i
CCN1C(=O)c2ccccc2S(=O)c2ccc(C(=O)NCCCN3CCCC3=O)cc21 (centres undefined)	.	.	-1.3%	0.5%	.
COc1ccc(OCC(=O)Nc2cc(OC)cc(OC)c2)cc1	.	.	1.8%	-1.0%	.
CC(C)P(=O)(Cc1cccc(C#N)c1)C(C)C	2.2e-08	i	2.8%	-0.9%	i
O=C(O)c1cc(N=Nc2ccc([N+](=O)[O-])cc2)ccc1O	1e-09	i	-13.2%[11.4 µM]	-1.3%[11.5 µM]	i
COc1cc(-c2nnc3sc(-c4ccco4)nn23)cc(OC)c1OC	1.16e-08	i	-3.0%	3.6%	i
CN(C)S(=O)(=O)N(CC(=O)NCc1ccccc1)c1ccccc1	1e-09	i	7.9%	-1.8%	i
C=CCC1CCCCC12NC(=O)NC2=O (centres undefined)	.	.	6.1%	-2.1%	.
COCC(COCCCNC(=O)Nc1ccc(Br)cc1)OC (centres undefined)	.	.	5.6%	0.6%	.
Cn1cccc1C(=O)N1CCC2(CCCN(Cc3ccncc3)C2)CC1	4.9e-09	i	1.3%	2.7%	i
c1ccc2c(c1)nc(NC1CCCCC1)c1nncn12	.	.	0.1%	-2.2%	.
O=C(N1CCN(c2ccccc2F)CC1)C12CC3CC(CC(C3)C1)C2	3.43e-08	i	73.9%	-0.4%	i
CC1(C)[C@@H]2CC[C@]1(C)[C@@H](OC(=O)CSC#N)C2	2.96e-08	i	-4.5%[11.4 µM]	-1.7%[11.5 µM]	i
CN(C)S(=O)(=O)N1CCN(c2cc(Cl)ccc2Cl)CC1	5.8e-09	i	25.0%	-0.4%	i
CCOC(=O)CCN1C(=O)[C@H]2[C@H]3[C@H](O)[C@H](O)C/C(=N/NC(=O)OCc4ccc(OC)cc4)[C@H]3CC[C@@H]2C1=O	.	.	-0.7%[11.4 µM]	1.4%[11.5 µM]	.
CCC(C)NC(=O)CNC(=O)Cn1c(C)cc2ccccc2c1=O (centres undefined)	1.89e-08	i	-0.7%	0.0%	i
CN1CCN(C(=O)c2ccc3c(c2)NC(=O)C(N2CCOCC2)S3)CC1 (centres undefined)	1e-09	i	-1.3%	1.3%	i
CCCOc1ccc(C2/C(=C(\O)c3c(C)[nH]c(C(=O)OC)c3C)C(=O)C(=O)N2CCN(C)C)cc1 (centres undefined)	1.48e-08	i	7.2%	1.9%	i
CCOC(=O)CC(=O)CSc1nnc(Cn2c(=O)sc3ccccc32)n1C	3.1e-08	i	?	0.8%	i
Cc1noc(C)c1CSc1nnc(-c2ccccc2F)n1CCc1ccccc1	6.8e-09	i	?	-1.5%	i
Cc1cccc(-c2noc(-c3ccc(F)cc3)n2)c1	4.4e-09	i	-6.0%	-0.9%	i
c1ccc(Cn2nnnc2-c2ccco2)cc1	8.1e-09	i	10.3%	-3.5%	i
O=C(C1CCCN(S(=O)(=O)c2ccc(Br)s2)C1)N1CCCCCC1 (centres undefined)	3.43e-08	i	?	-0.5%	i
CCCCc1cc(=O)oc2cc(OCc3nn[nH]n3)c(Cl)cc12	3.93e-08	i	?	0.4%	i
CCn1cc(C(=O)NCC2CCCO2)c2cc(OC)c(OC)cc2c1=O (centres undefined)	1.4e-09	i	4.0%	-1.4%	i
CCCCn1c(SCC(=O)Nc2nnc(C)s2)nc2c1c(=O)n(C)c(=O)n2C	1.8e-09	i	?	-2.0%	i
Cn1c(CNC(=O)Cc2ccc3c(c2)OCO3)nnc1SCc1ccccc1	1e-09	i	0.5%	-0.4%	i
CN(C)C(=O)c1ccc(-c2nc(NC3CCNCC3)c3ccccc3n2)cc1	7.2e-09	i	0.8%	-1.1%	i
N#Cc1c(NC(=O)c2nc3ncccn3n2)sc2c1CCCCC2	1e-09	i	-24.0%	0.2%	i
CCOC(=O)c1c(NC(=O)COC(=O)Cn2cnc3ccccc32)sc(C)c1C	1e-09	i	?	-0.4%	i

Later entries.
SMILES	A647 autofl	Resorufin autofl	TSHR ag	AID923	A488 fluor
CN(C)CCSc1nc(N)c2c3c(sc2n1)CN(C)CC3	1e-09	i	7.8%	1.0%	i
CC1CCN(C(=O)CCNS(=O)(=O)c2ccccc2)CC1	1.91e-08	i	10.6%	-3.5%	i
O=C(Nc1ccc(S(=O)(=O)N2CCOCC2)cc1)C1CCCCC1	1e-09	i	5.4%	-0.4%	i
COc1ccccc1N1CCN(CCCNC(=O)Nc2ccccc2)CC1	3.03e-08	i	1.0%	-1.6%	i
CN1CCN(S(=O)(=O)c2ccc(NC(=O)c3ccco3)cc2)CC1	3.8e-09	i	?	-1.4%	i
Cc1cc(C)cc(-c2nc(-c3ccncc3)no2)c1	.	.	-3.0%	-1.7%	.
COC(=O)[C@H](C)NC(=O)Nc1ccc(S(N)(=O)=O)cc1	1e-09	i	1.3%	0.1%	i
COc1ccccc1NC(=O)CSc1nc(O)cc(=O)[nH]1	5.2e-09	i	-4.5%	-1.9%	i
CN(C)c1ccc(-c2nc(N(C)Cc3ccco3)c3ccccc3n2)cc1	1e-09	i	16.1%	13.1%	i
CCCNc1ncnc2[nH]ncc12	4.19e-08	i	-4.4%[11.4 µM]	1.3%[11.5 µM]	i
CCCn1c(SCC(=O)Nc2nc(C)c(C(=O)OC)s2)nnc1C(C)C	1e-09	i	?	1.3%	i
COc1ccc(-c2c3c(=O)n(C)c(=O)n(C)c3cn2-c2cc(OC)ccc2OC)cc1	3.5e-09	i	25.1µM*	0.0%	i
C1CCCNCC1	.	.	-3.2%	-0.5%	.
CCN(CC)CCCNC(=O)c1ccc(-n2c(=O)c(=O)[nH]c3ccccc32)cc1	.	.	?	-0.1%	.
CCC1(C)Cc2ccccc2-c2c1c(=O)n(Cc1ccccc1)c1nnnn21 (centres undefined)	3.5e-08	i	5.6%	-0.5%	i
CC(C)c1nc(SCC(=O)N2CCOCC2)c2c(=O)n(C)c(=O)n(C)c2n1	.	.	?	-1.1%	.
Cc1cc(-c2ccco2)n(CC(=O)NCCCc2ccccc2)n1	.	.	25.3%	2.3%	.
CCN(CC)S(=O)(=O)c1ccc(C(=O)Nc2ncn(Cc3ccccc3)n2)cc1	1e-09	i	20.4%	1.2%	i
CCc1ccc(C(c2ccc(CC)cc2)C(Cl)Cl)cc1	.	.	?	-1.0%	.
O=c1c2c3c(sc2n2cnnc2n1Cc1ccccc1)CN(Cc1ccccc1)CC3	2.5e-09	i	.	.	i
COCCn1nnnc1C(c1ccccc1)N1CCN(C)CC1 (centres undefined)	4.31e-08	i	7.3%	0.1%	i
Cc1ccc(CNC(=O)[C@H](C)[C@H]2C[C@]2(C)[C@H](NC(=O)OCc2ccccc2)c2ccccc2)o1	.	.	?	4.8%	.
CCn1cc(C(=O)NCCCN2CC(C)CC(C)C2)c2cc(OC)c(OC)cc2c1=O (centres undefined)	2.88e-08	i	-2.2%	0.3%	i
CCN(CC)CCOc1ccc(Br)cc1	.	.	9.6%	4.5%	.
COc1ccc(NC(=O)c2c(NC(=O)CNCc3ccco3)sc3c2CCC3)cc1	.	.	26.7%	-0.2%	.

Additional structures
SMILES	A647 autofl	Resorufin autofl	TSHR ag	AID923	A488 fluor
COC(=O)Cn1c(C(=O)N(C)C)cc2c1C[C@H]1CN(C(=O)c3ccccc3)[C@@](Cc3ccc(OC)cc3)(C(=O)OC)[C@@H]21	.	.	?	-0.4%	.
CC(C)CO/N=C1/C[C@@H](O)[C@@H](O)[C@@H]2[C@@H]3C(=O)N(C(C)(C)C)C(=O)[C@H]3CC[C@@H]12	.	.	-6.7%[11.4 µM]	-1.1%[11.5 µM]	.
CC1CN(C(=O)c2ccc3c(c2)OCO3)OC(c2ccccc2)O1 (centres undefined)	1e-09	i	.	1.5%	i
CCn1cc(C(=O)NCCCN(C)c2ccccc2)c(=O)c2cc(S(=O)(=O)N(C)C)ccc21	.	.	-12.4%	0.9%	.
Cc1nc(-c2c(-c3ccc(O)cc3O)noc2C(F)(F)F)cs1	1.44e-08	i	.	.	i
CC(=O)c1sc2nc(=O)c(C)nn2c1C	2.17e-08	i	6.4%	-3.2%	i
COC(=O)c1cc2sccc2n1CC(=O)Nc1ccc(OC)c(OC)c1OC	8.3e-09	i	3.4%[11.4 µM]	-1.2%	i
O=C(Cc1ccc(Cl)cc1)Nc1ccc2oc(-c3ccncc3)nc2c1	4.2e-09	i	8.3%	-0.4%	i

Some of the compounds tested; the hit share may differ from the screen's.
